ALR H2O2 inh – inhibitors of human sulfhydryl oxidase ALR; purified ALR, DTT oxidation, H2O2 HRP-luminol luminescence; inhibition, % (concentration not given with the values); 290,000 tested, 3.8% active; AID 485317;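 active = mean and each replicate at 75% or more; inconclusive = only one of the two met; inactive = neither met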;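 also: stock transfer was 7.5 nL into about 7.5 µL; 0% = neutral wells and 100% = wells with inactivated enzyme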
rRNA inh HTS – inhibitors of bacterial rRNA selective over humanized ribosomes; E. coli WT GFP vs humanized-ribosome RFP mutants, fluorescence, 24 h; active compounds read low; DMSO median 0, no signal -100; GFP signal change (wild-type ribosome), % (concentration not given with the values); 350,000 tested, 1.6% active; AID 720706;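 active = significant combined selectivity score with lowered wild-type GFP, culture density cut under 30%, mutant RFP and density less affected; inactive = any of these conditions unmet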; also: one replicate is shown; some compounds called inactive have numbers as strong as hits
E coli growth – blocks Escherichia coli growth; OD600, 23 h; active compounds read low; OD600 absorbance (concentration not given with the values); 330,000 tested, 0.21% active; AID 1053175;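 active = OD600 absorbance below the run mean of sample wells minus 3.6 SD, in any replicate, cut at about 0.56 in these data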;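 also: stock transfer was 300 nL into about 60 µL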
Vif A3G – HIV-1 Vif–A3G interaction blockers – biochemical, TR-FRET, GST-Vif 1-94, biotin-A3G peptide, dose response retest, primary screen (AID 1117319); TR-FRET GST-Vif / biotin-A3G peptide binding; higher % means a stronger effect; test concentration not given here; strong numbers were not always called active; one-dose inhibition, %; IC50 in µM for titrated hits; 260,000 tested, 0.57% active;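 active = above the screen mean plus three standard deviations and confirmed in dose response; inconclusive = results disagree or hit not tested in dose response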;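 also: Vif residues 1-94 fused to GST binding biotinylated APOBEC3G peptide 110-148; 0% = full assay without inhibitor and 100% = GST in place of GST-Vif; retest series ran down from 100 µM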
HNF4A DNA FP – change in binding of human HNF4 alpha to DNA | P41235 | HNF4a-FITC DNA binding, fluorescence polarization, 1 h | activity change, % at 10 µM | 360,000 tested, 0.3% active | AID 1224865; in the data active = activity change above about 30%, passing the limit was not always enough;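 also: controls were the assay level and a saturating level of protein; the project sought stronger binding though the title names inhibitors; some compounds called inactive have numbers as strong as hits; positive values seem to mean higher polarization but the record does not say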
Target sequence (P41235 whole entry, looked up): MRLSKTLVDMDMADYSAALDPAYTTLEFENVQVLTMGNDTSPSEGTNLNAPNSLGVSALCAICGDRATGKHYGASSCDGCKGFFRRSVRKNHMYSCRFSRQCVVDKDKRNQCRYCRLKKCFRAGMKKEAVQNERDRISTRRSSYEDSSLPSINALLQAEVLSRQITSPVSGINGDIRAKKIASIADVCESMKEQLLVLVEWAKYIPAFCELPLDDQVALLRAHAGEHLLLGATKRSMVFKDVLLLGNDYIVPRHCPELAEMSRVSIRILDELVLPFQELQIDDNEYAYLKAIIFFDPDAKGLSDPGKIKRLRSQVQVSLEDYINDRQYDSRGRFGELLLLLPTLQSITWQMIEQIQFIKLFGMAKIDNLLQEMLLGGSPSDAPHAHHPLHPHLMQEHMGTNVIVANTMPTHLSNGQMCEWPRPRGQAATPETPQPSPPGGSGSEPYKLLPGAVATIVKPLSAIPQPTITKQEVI
FGF22 binding – binders of recombinant human FGF22 by thermal shift; SYPRO orange fluorescence; percent of sucrose octasulfate shift, DMSO zero; calls only at 9.99 µM; 340,000 tested, 1.5% active; Q9HCT0;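 active = melting point raised past a set limit in the mean and every replicate; inconclusive = no clear call; three in four hits are not shown here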
MLL AF4-AF9 inh – MLL-AF4/AF9 protein interaction inhibition | 350,000 tested, 0.47% active | AID 651704 | AlphaScreen, biotin-AF4 peptide binding to FLAG-AF9 | inhibition, % at 10 µM;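 active = every replicate reaching a set inhibition limit, whatever the replicate mean, cut at about 25% in these data; inconclusive = mean inhibition reaches that limit but some replicates miss it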;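 also: 0% = plate neutral control median and 100% = total signal loss; the record names both 10 and 1 µM as test concentration; the first replicate is given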
Target sequence (P42568 whole entry, looked up): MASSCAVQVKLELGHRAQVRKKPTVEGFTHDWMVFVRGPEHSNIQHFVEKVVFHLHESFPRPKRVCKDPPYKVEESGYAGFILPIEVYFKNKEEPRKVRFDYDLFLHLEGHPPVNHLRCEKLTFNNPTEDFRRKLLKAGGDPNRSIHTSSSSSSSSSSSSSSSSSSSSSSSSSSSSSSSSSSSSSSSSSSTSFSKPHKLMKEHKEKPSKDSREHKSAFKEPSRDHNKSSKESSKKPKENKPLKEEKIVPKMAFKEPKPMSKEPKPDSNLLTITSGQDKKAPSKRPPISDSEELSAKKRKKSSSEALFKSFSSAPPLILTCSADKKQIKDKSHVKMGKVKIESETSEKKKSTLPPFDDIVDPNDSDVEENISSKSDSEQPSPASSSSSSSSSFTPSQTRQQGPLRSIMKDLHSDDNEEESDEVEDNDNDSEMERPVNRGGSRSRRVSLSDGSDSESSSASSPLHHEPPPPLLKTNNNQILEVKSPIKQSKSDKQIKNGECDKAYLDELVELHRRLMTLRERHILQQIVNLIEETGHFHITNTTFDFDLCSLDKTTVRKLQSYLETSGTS
rRNA inh HTS OD600 – further read-out of rRNA inh HTS, marked with its call; OD600 change, %; measured here: OD600 growth;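 optical density of the mix in the first replicate; 0 = DMSO median and -100 = no signal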
rRNA inh HTS RFP – further read-out of rRNA inh HTS, marked with its call; RFP signal change, %; measured here: RFP humanized mutant strains;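 first replicate; 0 = DMSO median and -100 = no signal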
The depositor's hits bear a star; i = inactive; ? = inconclusive; · = no result given. This is a subset; the hit share may differ from the screen's.

A first look:
SMILES	ALR H2O2 inh	rRNA inh HTS	rRNA inh HTS OD600	rRNA inh HTS RFP	E coli growth	Vif A3G	HNF4A DNA FP	FGF22 binding	MLL AF4-AF9 inh
COC(=O)C1=C(C(=O)OC)[C@]2([C@@H]3CC=CCN[C@@H](Cc4ccccc4)C(=O)N3Cc3ccccc3)C=C[C@H]1O2	·	19	-7	-8.2	·	·	-3.5	i	2.8
O=C(Cn1nc(C(=O)O)c2ccccc2c1=O)c1cc(F)ccc1F	33	16	1	-1.6	0.7	·	-6.6	i	1.0
NC1=NC[C@@H](Cc2ccc(O)cc2)N1CCc1cccc2ccccc12	37	-59	-81	-30	·	3%	1.1	i	12
Cc1cccc(-n2c(C)cc(C(=O)NC3CCCCC3)c2C)c1	48	·	·	·	0.71	·	6.0	i	-0.2

The listing, previewed entries included:
SMILES	ALR H2O2 inh	rRNA inh HTS	rRNA inh HTS OD600	rRNA inh HTS RFP	E coli growth	Vif A3G	HNF4A DNA FP	FGF22 binding	MLL AF4-AF9 inh
COC(=O)C1=C(C(=O)OC)[C@]2([C@@H]3CC=CCN[C@@H](Cc4ccccc4)C(=O)N3Cc3ccccc3)C=C[C@H]1O2	·	19	-7	-8.2	·	·	-3.5	i	2.8
O=C(Cn1nc(C(=O)O)c2ccccc2c1=O)c1cc(F)ccc1F	33	16	1	-1.6	0.7	·	-6.6	i	1.0
NC1=NC[C@@H](Cc2ccc(O)cc2)N1CCc1cccc2ccccc12	37	-59	-81	-30	·	3%	1.1	i	12
Cc1cccc(-n2c(C)cc(C(=O)NC3CCCCC3)c2C)c1	48	·	·	·	0.71	·	6.0	i	-0.2
CCCC(=O)Nc1nnc(SCC(=O)N2C(C)CCCC2C)s1 (centres undefined)	3	1	0	-1.4	0.69	·	0.5	i	0.9
O=C(CSc1nc(-c2ccco2)cc(C(F)(F)F)n1)NCCCn1ccnc1	2	5	7	1.2	0.71	7%	0.1	i	-8.5
C[C@H](CO)N1C[C@H](C)[C@H](CN(C)S(C)(=O)=O)OCCCC[C@H](C)Oc2ccc(NC(=O)Nc3ccc4c(c3)OCO4)cc2C1=O	·	-4	-8	-1.0	·	·	·	i	-1.4
NC(=O)C1CCN(C(=O)/C=C/c2cccc(Br)c2)CC1	·	-5	-6	-2.5	0.73	21%	-1.3	i	-7.6
CCCCCOc1ccc(/C=C/C(=O)NCCc2nc3ccccc3[nH]2)cc1OC	6	-25	-34	35	0.66	·	-1.7	i	0.4
CCC1OC(=O)C(C)C(OC2C[C@@](C)(OC)C(O)C(C)O2)C(C)C(O[C@@H]2OC(C)CC(N(C)C)C2O)[C@](C)(O)CC(C)C(=NOCOCCOC)C(C)C(O)[C@]1(C)O (some centres undefined)	6	·	·	·	·	·	0.4	i	-1.9
CCOc1ccc(-c2cc(C(=O)O)c3ccccc3n2)c(OCC)c1	-7	·	·	·	0.71	8%	0.3	·	·
Cc1ccc(S(=O)(=O)c2ccc([N+](=O)[O-])cn2)cc1	89*	24	12	2.4	0.59	27%	2.0	i	-5.8
O=C1C=C(c2ccc(Cl)cc2)OC2(CCCC2)O1	-6	·	·	·	0.73	4%	2.1	·	·
O=C1c2ccccc2NC2(CCCC2)N1NS(=O)(=O)c1ccccc1	-3	2	3	0.8	0.68	-3%	-2.9	i	-1.7
COc1ccc(OC)c(CN2CCC(Cc3ccccc3)CC2)c1	-47	-4	-2	-0.1	0.63	-16%	-3.1	i	6.1
Cn1ccc2ccc(C3=CC(=O)C[C@H](c4ccc(F)cc4)C3)cc21	3	-12	-24	-20	·	·	4.2	i	3.1
CC(=O)Oc1cc(C)cc2oc(=O)cc(-c3ccccc3)c12	-3	-30	-50	-1.0	0.67	·	1.2	i	0.9
COc1cccc(CNC(=O)CCC2CCCN(c3cc(C)nc(N4CCCC4)n3)C2)c1 (centres undefined)	-6	5	5	-0.9	0.65	?	-3.9	i	0.0
O=C(Sc1ccccc1)c1cccc(Cn2cc(C(F)(F)F)ccc2=O)c1	·	9	0	0.2	0.65	-12%	0.6	i	0.5
COc1ccccc1NC(=O)CSc1nnc(COc2ccccc2C)o1	-10	3	-22	2.9	0.69	·	-1.1	i	-1.8
CCCCC(=O)N1CCCC(C)C1 (centres undefined)	24	14	12	0.3	0.65	·	2.5	i	-0.6
CC(C)(C)C(=O)NCCN1C(=O)S/C(=C\c2ccc([N+](=O)[O-])cc2)C1=O	-3	3	3	-0.7	0.7	·	-1.1	·	3.5
Cc1cc(C(=O)CSc2nnc(Nc3ccccc3F)s2)c(C)n1CC1CCCO1 (centres undefined)	·	·	·	·	0.7	30%	-2.4	·	·
O=C(c1cc(C2CC2)on1)N1CCN(C(c2ccccc2)c2ccccc2)CC1	-27	-11	-12	-3.8	0.77	6%	-0.1	i	-1.8
C[C@H](CO)N1C[C@H](C)[C@@H](CN(C)Cc2ccc(C(F)(F)F)cc2)Oc2ccc(NC(=O)Nc3ccc(C(F)(F)F)cc3)cc2C1=O	·	4	-6	-1.1	·	·	·	i	-1.1
Cc1ccc(C(=O)CC2C(=O)N(c3ccccc3)C(=S)N2c2ccccc2)cc1 (centres undefined)	-14	·	·	·	0.72	-2%	-1.9	·	·
CCCCOc1ccccc1C1C(C(N)=O)=C(C)Nc2nnnn21 (centres undefined)	5	·	·	·	0.7	10%	2.1	·	·
CCCNC(=O)C[C@@H]1C[C@H]2c3cc(NS(=O)(=O)c4ccc(F)cc4)ccc3O[C@H]2[C@@H](CO)O1	·	-3	2	-4.3	·	·	·	i	2.3
CCc1ccc(CCC(=O)Nc2nccs2)o1	28	·	·	·	0.65	8%	4.9	·	·
COc1ccc(NC(=O)c2cccn(CC=C(C)C)c2=O)cc1	1	-26*	-20*	-7.1*	0.65	8%	-0.3	i	0.3
O=C(C1CCCCC1)N1C[C@H](n2cc(-c3ccc(F)cc3)nn2)[C@@H](O)C[C@@H]1c1ccccc1	·	5	-1	1.2	·	·	2.1	i	-0.1
COCC(=O)N1C[C@H]2[C@@H](c3ccccc31)[C@H](CO)N2Cc1ccccc1F	·	2	2	1.1	·	·	·	i	-14
COCCNC(=O)C1(C)CCCN(CC(=O)c2ccc(OC)cc2)C1 (centres undefined)	·	2	6	0.3	·	·	-2.3	i	-0.6
CCN(CC)CCCNC(=O)c1cc(Nc2ccc(OC)cc2OC)nc2ccccc12	66	4	7	-0.2	0.62	-8%	0.9	i	22
COC(=O)C[C@H]1CC[C@@H]2[C@H](COc3ccc(NC(=O)Nc4c(C)noc4C)cc3C(=O)N2C)O1	·	6	11	-0.8	·	·	·	i	-1.3
COc1ccc(-c2noc(CSc3nnc(-c4ccccc4)n3C)n2)cc1	-3	-22*	-14*	9.4*	0.7	-3%	-1.1	i	8.9
COCCCN(C(=O)Nc1cccc(Cl)c1)C(C)c1ccccn1 (centres undefined)	-8	·	·	·	0.72	0%	-1.8	·	·
COc1ccc2c3c(n(C)c2c1)[C@H](CO)N(C(=O)c1ccccc1)CC31CN(C(C)=O)C1	·	-2	2	-3.5	·	·	·	i	-2.4
Cn1c(SCC(=O)NCc2ccco2)nnc1C1CC1	·	13	20	0.8	0.69	·	-0.2	i	1.4
CO[C@@H](CN(C)S(=O)(=O)c1ccc(C)cc1)[C@@H](C)CN(C(=O)Nc1ccccc1F)[C@@H](C)CO	·	-5	-5	1.1	·	·	·	i	0.2
CN(C)C(=O)COC(=O)c1cccc(CN2C(=O)c3ccccc3C2=O)c1	-1	-1	-5	0.7	0.63	·	1.3	·	-0.2
COc1ccc(CC(NC(C)=O)C(=O)NC2CCN(C(=O)c3ccc(Cl)cc3)CC2)cc1 (centres undefined)	·	5	7	-1.7	0.65	·	5.2	i	1.7
CC(=O)OC1CCC2C3CCc4cc(OP(=O)(N5CC5)N5CC5)ccc4C3CCC12C (centres undefined)	·	-43	-60	21	·	-3%	3.1	i	1.1
O=C(COC(=O)c1cc(Cl)cc(Cl)c1)NCCN1C(=O)CSC1=O	·	6	3	-4.8	0.68	-1%	0.3	i	-6.3
O=C(COc1ccccc1[N+](=O)[O-])Nc1ccc(NC(=O)c2cc3ccccc3o2)cc1	-13	4	-3	0.2	0.69	-8%	-0.7	i	-6.9
CCC(C)NC(=O)Cn1c(-c2ccccc2)cc(C(C)=O)c1C (centres undefined)	2	14	7	3.3	0.71	-5%	1.1	i	1.4
O=C(O)C1CCC(Cn2c(SCc3cc(=O)n4cc(Br)ccc4n3)nc3ccsc3c2=O)CC1 (centres undefined)	12	-26	-33	-11	0.68	·	-1.8	i	1.4
CN(C)C(=O)c1cc2c(c(-c3cccc(-c4ccccc4)c3)n1)[C@@H](CCO)N([S@](=O)C(C)(C)C)C2	·	-3	13	0.5	·	·	·	i	2.8
CC1CCCC(C)N1CCNC(=O)Cn1nc(-c2ccccc2)ccc1=O (centres undefined)	-3	16	9	3.5	0.7	-1%	1.8	i	0.1
O=C(N/N=C/c1ccc(N2CCCC2)c([N+](=O)[O-])c1)c1cccnc1	-12	12	24	1.4	·	·	3.0	i	-0.9
COc1ccc(NC(=O)Nc2ccc3c(c2)C(=O)N([C@H](C)CO)C[C@H](C)[C@H](CN(C)C(=O)Nc2ccc(C(F)(F)F)cc2)O3)cc1	·	-6	-23	-1.5	·	·	·	i	-7.1
C[C@@H]1CN([C@H](C)CO)C(=O)c2cccc(NC(=O)C3CC3)c2O[C@H]1CN(C)C	·	0	7	-0.4	·	·	·	i	2.4
Cc1ccccc1-c1cnc2c(c1)C(=O)N([C@H](C)CO)C[C@H](C)[C@H](CN(C)Cc1cncnc1)O2	·	-3	-2	-1.3	·	·	·	i	-2.3
O=C(COC(=O)CCOc1ccccc1)Nc1ncc(Cl)cc1Cl	-9	·	·	·	0.69	-3%	-0.1	·	·
O=[N+]([O-])c1cc(Cl)c(O)c2ncccc12	·	-54	-75	-12	0.068*	13%	-0.1	·	-0.3
COC(=O)c1ccc(C2/C(=C(\O)c3cccc(OC)c3)C(=O)C(=O)N2CCCN2CCOCC2)cc1 (centres undefined)	-2	8	10	1.8	0.66	·	-3.1	i	-13
O=C(OC1CCCCC1)c1ccc(NC(=O)C2CCCCC2)cc1	3	·	·	·	0.76	3%	-3.5	·	·
COc1ccccc1OCc1cc(C(=O)N(C)CCC2CCCCO2)no1 (centres undefined)	-4	·	·	·	0.72	-1%	3.5	i	-0.4
O=C(Nc1cccc(S(=O)(=O)N2CCOCC2)c1)c1ccc(Cl)nc1	-10	-2	-1	-0.7	0.71	·	-0.3	i	1.1
CCNC(=O)C(=O)NCC1OCCCN1S(=O)(=O)c1ccc(F)cc1C (centres undefined)	·	17	14	0.3	0.66	·	-0.4	i	-6.0
Next part:
SMILES	ALR H2O2 inh	rRNA inh HTS	rRNA inh HTS OD600	rRNA inh HTS RFP	E coli growth	Vif A3G	HNF4A DNA FP	FGF22 binding	MLL AF4-AF9 inh
C[C@@H]1CN([C@@H](C)CO)C(=O)c2cc(NC(=O)Nc3cccc4ccccc34)ccc2O[C@@H](C)CCCCO[C@H]1CN(C)C(=O)Nc1ccc2c(c1)OCO2	·	0	8	0.9	·	·	·	i	-1.2
CCC(C)(C)NC(=O)CN(Cc1ccc(F)cc1)C(=O)CCC(=O)Nc1ccccn1	-3	1	11	-1.9	0.66	·	-0.7	i	1.6
O=c1cc(O)c2c(=O)n(-c3ccccc3)c3ccccc3c2o1	-1	·	·	·	0.78	5%	6.7	·	·
Cc1nnc2n(c1=O)C(CS(=O)(=O)c1ccccc1)CS2 (centres undefined)	-9	·	·	·	0.69	-4%	-4.7	·	·

Source: PubChem (several laboratories)
